Screening data as filed in PubChem.
NPR1 antag – blocks ANP-stimulated signaling of human Npr1 receptor; P16066; HEK293 hNpr1 GloSensor cGMP, ANP-stimulated luminescence; Potency, µM (highest dose often 46.3 µM), for inactives: at the highest dose activity change, negative = inhibition, most hits filed as inhibitors; hit rate 1.6% among 76,000; AID 1347048; active = well fitted inhibition curve with a large enough effect; inconclusive = small, poorly fitted or top-dose-only effect; inactive = no such curve, though single readings can be large or run the other way;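 further: nearly all actives have a fitted effect of over 60% in size; nearly all hits also lower the signal before the agonist is added; a reference antagonist and vehicle were the controls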
Target sequence (P16066 whole entry, looked up): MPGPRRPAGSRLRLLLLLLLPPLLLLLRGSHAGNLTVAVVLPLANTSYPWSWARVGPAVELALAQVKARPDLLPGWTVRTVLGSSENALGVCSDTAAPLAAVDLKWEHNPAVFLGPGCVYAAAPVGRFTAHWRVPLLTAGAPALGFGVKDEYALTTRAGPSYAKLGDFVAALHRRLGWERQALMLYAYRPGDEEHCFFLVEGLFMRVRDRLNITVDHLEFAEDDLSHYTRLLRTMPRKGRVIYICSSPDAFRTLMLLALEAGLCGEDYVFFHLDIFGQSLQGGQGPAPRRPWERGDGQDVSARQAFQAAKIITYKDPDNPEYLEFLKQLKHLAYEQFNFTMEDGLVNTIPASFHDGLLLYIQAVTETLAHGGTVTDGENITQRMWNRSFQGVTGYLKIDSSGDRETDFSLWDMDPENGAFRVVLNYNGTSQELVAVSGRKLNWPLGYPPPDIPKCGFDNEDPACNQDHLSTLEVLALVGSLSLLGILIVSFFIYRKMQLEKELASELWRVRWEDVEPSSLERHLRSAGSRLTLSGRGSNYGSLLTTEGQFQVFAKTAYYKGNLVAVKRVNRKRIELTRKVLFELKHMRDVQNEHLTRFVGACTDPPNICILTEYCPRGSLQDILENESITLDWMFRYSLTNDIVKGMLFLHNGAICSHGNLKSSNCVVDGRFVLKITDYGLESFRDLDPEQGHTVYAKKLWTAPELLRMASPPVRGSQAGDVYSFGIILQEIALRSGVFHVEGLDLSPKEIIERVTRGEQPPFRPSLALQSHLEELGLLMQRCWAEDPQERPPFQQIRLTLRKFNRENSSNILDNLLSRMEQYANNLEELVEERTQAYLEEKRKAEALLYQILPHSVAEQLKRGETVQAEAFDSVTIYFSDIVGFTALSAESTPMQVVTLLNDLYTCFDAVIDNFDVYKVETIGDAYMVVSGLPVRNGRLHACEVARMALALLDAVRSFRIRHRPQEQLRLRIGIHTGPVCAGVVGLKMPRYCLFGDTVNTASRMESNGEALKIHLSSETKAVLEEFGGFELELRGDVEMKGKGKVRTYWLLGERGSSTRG
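Compound pre-incubated 30 min at room temperature on GloSensor-loaded HEK293 cells stably carrying hNpr1 and the pGS-40F cGMP biosensor. Stimulation uses hNppA at 0.1 nM final; luminescence is taken at baseline and 20 min post-agonist.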
* = called active by the depositor; ? = inconclusive; [ ] = remark or other dose. On the % scale 0 is the no-effect control and ±100 the full control effect; potency means the concentration at half of the fitted maximal effect.

SMILES	NPR1 antag
O=C1CC(C(=O)N2CCN(c3ccc(F)cc3)CC2)CN1Cc1ccncc1 (configuration not stated)	9%
COc1ccc(-c2cc(-c3ccc(CO)cc3)cn3cncc23)cc1	-17%[70.6 µM]
Cn1cc(CN2C[C@H](C(=O)NCc3cccc(F)c3)C[C@H]2c2cccc(C(F)(F)F)c2)cn1	5%
O=C(CC[C@H]1NC(=O)c2ccccc2NC1=O)Nc1n[nH]c(CCc2ccccc2)n1	-1%
CC(C)C[C@@H]1N[C@H](C(=O)NC2CCCC2)Cc2c[nH]c3cccc1c23	-4%[70.6 µM]
Cc1noc(C)c1-c1cnc(NC(=O)c2ccc(Cl)cc2)c2c1CCO2	2%[70.6 µM]
CCOc1ccccc1CN1CCC2(CCN(C(=O)c3ccc(Cl)nc3)CC2)Oc2ccccc21	-5%
CN1C(=O)C2(CCN(C(=O)Nc3ccccc3F)C2)c2ccccc21 (configuration not stated)	-10%
O=C(c1cc(Cl)ccc1F)N1CCN(c2cc(C(F)(F)F)ncn2)CC1	?
O=C(Nc1ncc(-c2cccc(F)c2)c2c1OCC2)c1cccnc1	1%[70.6 µM]
CC(C(=O)NC1CCN(c2cnn(CC3CC3)c(=O)c2)CC1)c1ccccc1 (configuration not stated)	-2%
O=C1CCN(S(=O)(=O)c2ccccc2)CCCN(C(=O)CC2CCCC2)CCN1	-1%
O=C1CCN(C(=O)CCc2c[nH]c3ccccc23)CCCC(C(=O)NCc2ccccc2)CCN1 (configuration not stated)	-4%
OCC1CN(c2ncccn2)CC12CCN(Cc1cccnc1)CC2 (configuration not stated)	3%
COc1cc2c(cc1OC)C(CNC(=O)C1CCCC1)N(C(=O)NC(C)C)CC2 (configuration not stated)	7%
O=C(NCC1CC1)c1ccc2c(c1)OCCN(c1ccccc1)C2	-4%[70.6 µM]
Cc1ccc(S(=O)(=O)N2CCC(n3cnnc3C)CC2)cc1Cl	-4%
COC[C@@H]1CN(C(=O)Cn2cc(C)cn2)C[C@H]1c1ccncc1	0%
O=C(Cn1nc2c(cc1=O)CCCC2)Nc1ccc(C(F)(F)F)cc1	-7%
Cc1cc(F)ccc1OC1CN(C(=O)c2ccccn2)C1	-2%[70.6 µM]
CNC(=O)c1cccc(-c2cnc(Nc3ccc(Cl)cn3)c3c2CCO3)c1	?
CCn1c2c(c(=O)n1Cc1ccccc1)CCN(C(=O)c1cccnc1)C2	5%[70.6 µM]
O=C(c1cc(C2CC2)[nH]n1)N1CCc2nn(Cc3ccccc3)c(=O)n2CC1	0%
COc1ccc(CCC(=O)N2CCC3(CC2)CC(OC)CCO3)cc1 (configuration not stated)	7%

Compounds listed so far that have a Cl atom (five):
SMILES	NPR1 antag
Cc1noc(C)c1-c1cnc(NC(=O)c2ccc(Cl)cc2)c2c1CCO2	2%[70.6 µM]
CCOc1ccccc1CN1CCC2(CCN(C(=O)c3ccc(Cl)nc3)CC2)Oc2ccccc21	-5%
O=C(c1cc(Cl)ccc1F)N1CCN(c2cc(C(F)(F)F)ncn2)CC1	?
Cc1ccc(S(=O)(=O)N2CCC(n3cnnc3C)CC2)cc1Cl	-4%
CNC(=O)c1cccc(-c2cnc(Nc3ccc(Cl)cn3)c3c2CCO3)c1	?

The listing continues.
SMILES	NPR1 antag
CC(NC(=O)C1(c2ccc(NS(C)(=O)=O)cc2)CCCCC1)c1ccccc1 (configuration not stated)	4%
Cc1nc(C)n(CCCNc2nccc(-c3cc(C(=O)O)ccn3)n2)n1	1%
COc1ccccc1-c1[nH]nc2ncc(C(=O)Nc3ccc4[nH]ccc4c3)nc12	-4%[70.6 µM]
Cc1ccc(NC(=O)Cn2ccn3nc(-c4ccc(F)cc4)c(CO)c3c2=O)cc1Cl	-2%
COc1ccc(-c2cc(CNC(=O)c3cn(CCN)nn3)no2)cc1	2%
CN1CCCN(C(=O)Nc2ccc3c(c2)OCCO3)c2ccccc21	-16%
O=C(c1ccc(=O)[nH]c1)N1C[C@@H](COCC2CC2)[C@H](c2ccccn2)C1	2%
Cc1nn(-c2ccc(F)cc2)c(Oc2ccc(F)cc2F)c1CCC(=O)NCc1ccco1	-5%
COc1cccc(CNC(=O)Cn2c(N3CCOCC3)nc(C)cc2=O)c1	6%
COc1ccc(C(=O)N2CCC(Oc3ncccc3C(=O)N3CCCCC3)C2)c(C)c1 (configuration not stated)	-14%
Cc1ccc(C(=O)N2CCC(Oc3ccc(NC(=O)c4ccccc4)cn3)C2)cc1 (configuration not stated)	?
Fc1ccccc1CN1CCOC[C@H]1c1ncc(-c2cccc(Cl)c2)[nH]1	-19%[70.6 µM]
CC(=O)N[C@H]1CC[C@]2(C)CC[C@@H](C(C)C(=O)NC(C)C)[C@H](O)[C@H]2[C@@H]1C (some centres not stated)	0%[70.6 µM]
CCOc1ccccc1NC(=O)Cn1c(=O)c(-c2noc(CC)n2)c2n(c1=O)CCCC2	1%
O=C(N1CCC(NS(=O)(=O)c2cccs2)CC1)N1CC2CC(C1)[C@H]1CCCC(=O)N1C2 (some centres not stated)	0%
CN(C)c1nc(C2CC(NC3Cc4ccccc4C3)C2)cc(=O)[nH]1 (configuration not stated)	17%
COc1cccc(CN2CCN3C(=O)N(Cc4ccccn4)C[C@H]3C2)c1	6%[70.6 µM]
O=C1N(c2ccccc2)C[C@H]2CN(Cc3ccnc4ccccc34)CCN12	?
CC(C)(C)CC(=O)N1CCC(C(NC(=O)c2ccccc2Cl)C(=O)N2CCCCC2)CC1 (configuration not stated)	-3%
CCN1CC2(CCN(Cc3c(OC)ccc(F)c3F)CC2)OC1=O	-5%
C1CNCC(c2nc(C3CCOCC3)no2)C1 (configuration not stated)	-9%
Cc1cccc(CN2CCc3nc(C(=O)NCc4ccccc4)oc3CC2)c1	-27%[70.6 µM]
COCCN1C(=O)c2ccccc2C(C(=O)Nc2nncs2)C12CCCCC2 (configuration not stated)	2%
COCc1nc(-c2ccc(OC3CN(C(=O)NCc4ccc(OC)cc4)C3)cc2)no1	?
Cn1ccnc1CN1CCCC12CCN(c1ccc(C(F)(F)F)cn1)CC2	-24%
O=c1c2nc(N3CCC(c4ccccc4)CC3)ccc2ncn1-c1cccnc1	3%[70.6 µM]
CN(CC1CCOCC1)C(=O)Nc1ccccc1F	0%
C[C@H]1[C@@H]2[C@@H](O)C([C@H](C)C(=O)NCc3cccs3)CC[C@@]2(C)CC[C@@H]1NC(=O)c1cncnc1 (some centres not stated)	-9%
COc1ccccc1N1CCN([C@@H]2[C@H](O)[C@H](CO)O[C@@H]2CN)CC1	4%
COc1ncccc1-c1cnc2n[nH]c(-c3ccc4c(c3)OCO4)c2n1	-19%[70.6 µM]
O=C(NCc1ccccc1)C1=NO[C@@H]2CN(Cc3ccncc3)C[C@H]12	6%[70.6 µM]
CN(C)CC(O)COc1ccc(CN(C)C2CCSCC2)cc1 (configuration not stated)	7%
O=C(NC1CCCN(c2cc(-c3ccc(F)cc3)[nH]n2)C1)c1ccc(F)cc1F (configuration not stated)	2%
CCn1cc(C(=O)N2CCOc3c(O)cc(-c4ccccc4C)cc3C2)cn1	-12%
COc1ccc(S(=O)(=O)N[C@H]2C[C@H]3C(=O)NC[C@@H](CCC(=O)NCc4ccccc4)N3C2)cc1	6%
c1cnn(-c2ccc(-c3n[nH]c(C4CCOCC4)n3)cc2)c1	11%

Reformatted with each value named: 4 of the compounds above.
mol: COc1ncccc1-c1cnc2n[nH]c(-c3ccc4c(c3)OCO4)c2n1
  NPR1 antag: -19%[70.6 µM]
mol: O=C(NCc1ccccc1)C1=NO[C@@H]2CN(Cc3ccncc3)C[C@H]12
  NPR1 antag: 6%[70.6 µM]
mol: CN(C)CC(O)COc1ccc(CN(C)C2CCSCC2)cc1 (configuration not stated)
  NPR1 antag: 7%
mol: O=C(NC1CCCN(c2cc(-c3ccc(F)cc3)[nH]n2)C1)c1ccc(F)cc1F (configuration not stated)
  NPR1 antag: 2%

Remaining list, next part:
SMILES	NPR1 antag
CCOCCn1c(=O)n(Cc2ncccn2)c2cc(C(=O)O)cnc21	0%
O=C(CN1CCN(C2CCCC2)CC(O)C1)NCCc1ccccc1 (configuration not stated)	-2%
CO[C@H]1C(=O)N(C(C)C)[C@H]1C1CCN(S(=O)(=O)c2cccs2)CC1	0%
CCOc1ccccc1-c1nc(-c2nnn3c2COC(c2ccc(OC)cc2)C3)no1 (configuration not stated)	6%
O=C(c1ccccc1)N1CCc2sc(C(=O)N3CCN(c4ccccc4)CC3)cc2C1	10µM*
Cc1cc(C(=O)N2CCC(c3nc(C4CCOCC4)no3)CC2)nn1C	1%
COc1cccc(-c2cc3c(=O)n(CCNC(=O)c4cc(F)cc(F)c4)ccn3n2)c1	-25%
O=C(NCC1CC1)C1CCCN1c1nc2ncccc2o1 (configuration not stated)	0%[70.6 µM]
O=C(c1ccc(F)cc1)N1CCC2(CN[S+](=O)([O-])c3ccccc3N2)C1 (configuration not stated)	0%
Cc1cc2nc(CO[C@H]3CN(Cc4ccc(C(F)(F)F)cc4)C[C@H]3F)[nH]c2cc1C	?
CNC(=O)N1CCC(C2CCN(Cc3ccc(F)c(OC)c3)C2)CC1 (configuration not stated)	2%
CCC1(C(=O)Nc2ccc(OC)c(F)c2)CCCCC(=O)N1 (configuration not stated)	-1%
CCOc1ccccc1C(=O)N1CCC[C@H]1c1nc(-c2ccc(OC)c(OC)c2)no1	1%
CCc1noc([C@@H]2CC(F)(F)CN2C(=O)CCn2cccn2)n1	-3%
OCC1(CNCc2cccnc2)C[C@@H](O)[C@@H](O)C1 (some centres not stated)	3%[70.6 µM]
CN(C)c1ccc(C(=O)N2CCN(c3nnc4ccccn34)CC2)cc1	6%
Cc1noc(C)c1C(=O)N1CCCC(c2[nH]ncc2-c2ccc(F)cc2)C1 (configuration not stated)	0%
CC(=O)Nc1ccc(CN2CCC(N3CCCCCC3=O)CC2)cc1	8%
O=C1CC2(CCN(CC3CC3)CC2)Oc2cc(Cl)ccc21	?
CCN1C(=O)C(CC(=O)NC(C)c2ccccc2)Sc2ncccc21 (configuration not stated)	-1%
COc1ccc(S(=O)(=O)N2CC(F)(F)C[C@H]2c2nc(C)no2)cc1	0%
COc1ccc(C(=O)N2C[C@@H](C(N)=O)[C@H](C3CCN(C)CC3)C2)cc1	8%
COCCC(=O)N1CCCn2cc(-c3cccc(C#N)c3)nc21	-11%
Cc1cnc(CCNC(=O)c2cccs2)n1CC1CC1	-3%
COC1CCCN(c2cc(-c3ccsc3)nc3c(C)noc23)C1 (configuration not stated)	-1%[70.6 µM]
O=C(Cc1cccc(F)c1)N1CCC(c2n[nH]c(=O)n2Cc2ccc(F)cc2)CC1	-6%
CCOC(=O)c1cccc(NC(=O)N2CC[C@@H](CC(=O)N(C)CC#N)[C@@H](CC)C2)c1	-10%[70.6 µM]
COCCn1c(Cn2ccc3ccccc32)nnc1C1CC(N)C1 (configuration not stated)	1%
Cn1nc(CN2CCN(c3ccncc3)CC2)c2c(Cl)cccc21	2%
CCOc1ccccc1C(=O)N1CCC2(CC1)N=C(c1cccc(Br)c1)NO2	0%
COCC1CN(Cc2ccc(F)c(F)c2)CC12CCNCC2 (configuration not stated)	4%
Cc1ccc(F)c(S(=O)(=O)NC[C@@H]2CCNC[C@H]2O)c1	1%
COCC(=O)N1CC[C@@H](CC(=O)O)[C@@H](CCN2CCN(c3ccccc3OC)CC2)C1	0%[70.6 µM]
Cc1ccc(CN2C(=O)[C@@H]3C[C@@H](O)CN3C3(CN(C4CCOCC4)C3)C2=O)o1	-3%[70.6 µM]
O=C1NCC(c2ccc(Cl)cc2)Cc2[nH]c(-c3ccc(O)cc3)nc21 (configuration not stated)	-4%
Cc1ccc(CNC(=O)c2ccc3c(c2)CNCCO3)cc1	-8%
COCCNC(=O)[C@H]1C[C@H](Oc2ccccc2)CN1C(=O)CC(C)C	-8%
O=C(NCc1cc2n(n1)CCN(C1CCCCC1)C2)c1cnn2ccccc12	-2%
O=C(c1ccc[nH]1)N1CCC(n2cc(-c3nc(-c4ccccc4)no3)nn2)CC1	-26%
COc1ccc(-c2nc3c(c(=O)[nH]2)CCN(C(=O)Nc2cc(F)cc(F)c2)C3)cc1	-1%
COC[C@H]1CCCN1C(=O)C[C@@H]1O[C@H](CNC(=O)c2ccc(C)cc2)[C@@H](O)[C@H]1O	4%[70.6 µM]
C[C@@H]1C(=O)O[C@H]2[C@H]1CC[C@@]1(C)Cc3sc(NS(=O)(=O)c4ccc5c(c4)CN(C(=O)C(F)(F)F)CC5)nc3[C@@H](C)[C@H]21	-2%
COc1ccc(-c2noc(-c3cccn3CC(=O)NCc3ccc(F)cc3)n2)cc1F	0%
C#CCNC(=O)CC[C@H]1CNC(=O)[C@@H]2[C@@H](CCN2Cc2ccc(C)cc2)N1C	5%[70.6 µM]
COc1ccccc1NC(=O)c1cc2c(n1C)CCN(Cc1ccc(F)cc1)C2	6%
O=C(NC1CCN(Cc2ccc(F)c(F)c2)CC1)c1ccc2nccn2c1	-10%
CN(Cc1ccc(F)cc1)C(=O)c1ccccc1	-11%[70.6 µM]
CN(C)Cc1nnc(C2CCN(C(=O)c3cn4cccnc4n3)CC2)n1C	3%
Cc1ccc(C)c(C(=O)N2CC(c3nnc(-c4ccncc4)o3)C3(CCOCC3)C2)c1 (configuration not stated)	2%
O=C(Cc1ccc(F)c(F)c1F)N[C@@H]1CCNC[C@H]1O	4%

These rows are one share of the data; the hit share may differ from the screen's.
